TRPML1 ag = activates the human TRPML1 channel; Q9GZU1; actives 0.12% (n = 410,000); TRPML1-expressing cells, Ca2+ dye fluorescence, FDSS; host cell line not named in the record; reference of the full effect not given here; activation, % (test concentration not listed); in the data active = activation above about 50%; inconclusive = about 30% to 50%; inactive = below about 30%; note: 0% is about no effect; the text of the record puts the active cut at 80%
Target sequence (Q9GZU1 whole entry, looked up): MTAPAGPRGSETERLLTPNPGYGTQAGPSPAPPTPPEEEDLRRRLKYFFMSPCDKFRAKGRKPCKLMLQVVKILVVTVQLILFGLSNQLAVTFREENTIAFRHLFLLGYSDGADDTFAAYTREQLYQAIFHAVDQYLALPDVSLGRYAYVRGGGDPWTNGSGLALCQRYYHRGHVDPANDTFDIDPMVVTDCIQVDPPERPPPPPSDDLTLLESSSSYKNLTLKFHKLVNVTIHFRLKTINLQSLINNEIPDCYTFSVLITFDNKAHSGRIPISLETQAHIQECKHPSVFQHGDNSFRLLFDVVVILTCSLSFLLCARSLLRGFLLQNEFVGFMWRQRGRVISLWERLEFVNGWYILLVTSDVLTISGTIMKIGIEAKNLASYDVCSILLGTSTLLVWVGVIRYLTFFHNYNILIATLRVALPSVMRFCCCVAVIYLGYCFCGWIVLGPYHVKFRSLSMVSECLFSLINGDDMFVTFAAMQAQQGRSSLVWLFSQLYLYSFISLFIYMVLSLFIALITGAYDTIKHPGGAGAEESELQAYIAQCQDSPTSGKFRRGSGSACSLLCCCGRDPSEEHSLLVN
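Cells: TRPML1-DL, 1X Tet inducer, ~16 h at 37 degrees C/5% CO2. Dye: ABD Ca8 no-wash + quencher, 45-90 min RT. Read: 10 s baseline, compound add, 110 s agonist phase; 54-4 EC80 (4uM final), 110 s antagonist phase.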
CtBP-E1A inh = blocks the CtBP interaction with E1A | AlphaScreen GST-E1A/His-CtBP binding, 1536-well; active compounds read low; control for the full effect not named in the record | activity change, % (no concentration beside the values) | actives 0.49% (n = 340,000) | AID 651724; in the data active means activity change below about -65%; inconclusive means about -30% to -65%; inactive means above about -30%; note: % is set by controls: 0 for no effect and ±100 for the full control effect
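GST-E1A and His-tagged CtBP (125 nM each as 5X stock) were preincubated with pin-transferred compound for 2 h at 37 °C in the dark, then glutathione donor and nickel acceptor beads were added for 1 h before AlphaScreen reading.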
D2 agonist = human D2 receptor agonism in beta-arrestin assay. P14416. DiscoveRx PathHunter D2 beta-arrestin, luminescence, 90 min; 100% = 57 uM dopamine signal. activation, % (no concentration beside the values). actives 0.084% (n = 360,000). AID 624465; in the data active = activation above about 40%; inconclusive = about 15% to 40%; inactive = below about 15%; note: compound concentration not given in the record; the text of the record calls up to 30% inactive
Target sequence (P14416 whole entry, looked up): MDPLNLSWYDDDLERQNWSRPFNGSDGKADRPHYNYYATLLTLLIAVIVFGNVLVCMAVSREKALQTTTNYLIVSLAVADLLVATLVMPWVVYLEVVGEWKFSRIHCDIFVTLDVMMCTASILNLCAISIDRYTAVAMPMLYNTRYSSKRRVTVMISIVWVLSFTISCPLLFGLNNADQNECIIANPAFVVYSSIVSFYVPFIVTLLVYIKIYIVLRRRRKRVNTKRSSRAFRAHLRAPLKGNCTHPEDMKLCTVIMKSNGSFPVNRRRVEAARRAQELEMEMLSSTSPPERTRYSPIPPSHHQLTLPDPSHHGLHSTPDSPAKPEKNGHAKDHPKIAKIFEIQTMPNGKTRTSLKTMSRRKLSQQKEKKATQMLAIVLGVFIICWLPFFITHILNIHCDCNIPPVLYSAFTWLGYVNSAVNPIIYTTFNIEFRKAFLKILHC
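Agonist mode: compounds alone added to overnight-plated D2 PathHunter cells for 90 min at 37 C, with 57 uM final dopamine (EC100) defining full response. Beta-arrestin recruitment detected by chemiluminescent reagent, read after 1 h at ambient temperature.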
D2 PAM = potentiates the human D2 dopamine receptor allosterically. potentiation, % (test concentration not listed). actives 0.23% (n = 360,000). AID 624464. DiscoveRx D2 beta-arrestin cells, luminescence, 90 min; 100% = 57 uM dopamine signal. P14416; active = potentiation of 50% or more; inconclusive = 30% to 50%; inactive = 30% or less;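 note: compound concentration not given in the record; tested on top of an EC20 dose of dopamine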
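D2 cells co-treated with compound plus 50 nM dopamine (EC20) for 90 min at 37 deg C to detect potentiation. Beta-arrestin recruitment was read as enzyme-fragment luminescence after 1 h at ambient temperature. Full response was set by 57 uM dopamine.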
Six1-Eya2 inh = blocks human Six1 binding to Eya2; activity change, % (no concentration beside the values); Q15475+O00167; actives 0.56% (n = 360,000); AlphaScreen GST-Six1/His-Eya2 binding, biochemical; active compounds read low; control for the full effect not named in the record; in the data active = activity change below about -65%; inconclusive = about -30% to -65%; inactive = above about -30%; note: % is set by controls: 0 for no effect and ±100 for the full control effect
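AlphaScreen with GST-Six1 and His-Eya2 (5X mix: 250 nM and 500 nM), glutathione donor and nickel acceptor beads; buffer 50 mM Tris pH 8.0, 300 mM NaCl, 1 mM TCEP; 1 h at 37 C in the dark.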
PINK1 expr mod = PINK1 expression modulation; Potency, µM (series often up to 76.6 µM), for the others: at the highest dose activation (PINK1 increase), actives largely listed as activators; actives 0.2% (n = 410,000); AID 624263; PINK1 immunofluorescence, high-content cytometry, 24 h; active = well fitted activation curve with a large enough effect; inconclusive = small, poorly fitted or top-dose-only effect; inactive = flat fitted curve, though single readings scatter; cell line not stated here;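 note: potency is the fitted concentration of half-maximal effect; % of control where 0% means no effect; nearly all actives have a fitted effect of over 65% in size; a mitochondrial uncoupler was the plate control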
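Cells are seeded, rested 12 hours, then given compound at five concentrations or DMSO for 24 hours. After fixation, blocking and antibody staining, PINK1 amount and mitochondrial localization are scored; CCCP serves as control.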
* = called active by the depositor; ? = inconclusive; · = not tested or not shown; & = joins results of further samples; [ ] = dose if it differs, or a comment.

SMILES | TRPML1 ag | CtBP-E1A inh | D2 agonist | D2 PAM | Six1-Eya2 inh | PINK1 expr mod
CCOc1ccc(CCNC(=O)CCNC(=O)c2ccccc2Cl)cc1OCC | 1.0 | -0.5 | -3.4 | -13.0 | -4.9 | 10.5%
O=Cc1ccc(OC(=O)c2cc(Cl)nc3ccccc23)cc1 | 0.1 | 2.2 | -7.6 | -5.6 | 2.0 | 3.3%
CC(=O)Nc1ccc(NS(=O)(=O)c2ccc3c(c2)oc(=O)n3C)cc1 | 0.1 | -0.2 | 2.7 | 2.5 | -4.0 | 1.5%
CCOC(=O)c1ccc(NC(=O)COc2ccc(S(=O)(=O)NC(C)CC)cc2)cc1 (stereo not drawn) | 1.7 | -2.9 | 2.1 | -1.7 | 3.6 | 8.3%
O=C(Nc1ccc2c(c1)OCCO2)c1cccc2nc3ccccc3nc12 | 2.1 | -67.7* | -2.7 | -2.4 | ? | 1.4%
c1ccc(Nc2ncnc3sc4c(c23)CCC4)cc1 | 0.3 | 13.8 | 0.3 | -15.1 | 3.6 | 0.5%[38.3 µM]
Cc1ccn(-c2ccc(NC(=O)c3cccs3)cc2)n1 | 1.4 | -4.4 | -3.4 | -2.4 | -7.5 | 4.0%
COc1ccc(OC)c(COC(=O)c2cc([N+](=O)[O-])ccc2N2CCOCC2)c1 | 1.4 | -5.2 | -3.9 | -1.6 | -23.4 | 7.7%
O=C(OCCN1CCN(c2ncc(C(F)(F)F)cc2Cl)CC1)c1ccc(F)cc1 | -0.4 | 6.7 | -1.7 | -33.8 | 1.9 | 0.9%
COc1ccc(OCCCC(=O)Nc2cccc(SC)c2)cc1 | 3.9 | -16.7 | 1.5 | -8.1 | -2.7 | 1.0%
Cc1cccc(NC(=O)NCCN2CCCCC2)c1 | 0.0 | · | 2.1 | -42.5 | -5.3 | 0.7%
CN(C)c1ccc(NC(=O)Nc2ccc3c(c2)c(=O)n(C)n3Cc2ccccc2)cc1 | 0.0 | -27.1 | 7.5 | 0.6 | ? | 2.1%
COc1ccccc1NC(=O)c1ccc(NC(=O)CSc2n[nH]c(N)n2)cc1 | 2.9 | -2.2 | -3.9 | 0.0 | 1.1 | -1.2%
COc1cc(N(C(=O)Cc2cccs2)C(C(=O)NC2CCCCC2)c2ccc(C)cc2)ccc1-n1cnnn1 (stereo not drawn) | 1.1 | -17.0 | -4.8 | -2.3 | 2.9 | -1.2%
CC(=O)N1CCc2c(sc(NC(=O)Cc3ccc(F)cc3)c2C#N)C1 | -0.4 | · | -0.1 | -4.7 | 16.0 | 6.0%
Cc1ccc(C2=NO[C@@](CC(=O)O)(C(=O)Nc3ccc4c(c3)OCCO4)C2)cc1 | -0.9 | -3.3 | 1.3 | -5.0 | 3.2 | -2.0%
COC(=O)c1ccc2c(=O)n(Cc3ccc(C(=O)NCCCN4CCC(C)CC4)cc3)c(=S)[nH]c2c1 | -0.7 | 0.0 | -3.2 | -9.0 | -10.7 | 2.1%
COc1ccc(-n2ccnc(SCC(=O)NC3CCCC3)c2=O)cc1OC | 0.0 | -3.6 | -2.8 | 1.2 | -3.5 | -1.3%
Oc1ccc(CCNc2ncnc3ccc(Cl)cc23)cc1 | -0.4 | -1.5 | -1.7 | 18.4 | -6.6 | 0.7%
COCCn1nnnc1C(c1cc2cc(C)ccc2[nH]c1=O)N1CCc2ccccc21 (stereo not drawn) | -0.4 | -1.7 | -4.4 | -4.3 | -12.7 | 1.1%
COc1ccc(NC(=O)N(C)C[C@@H]2OCc3ccccc3-c3c(n(C)c4ccccc34)C(=O)N([C@H](C)CO)C[C@H]2C)c(OC)c1 | 0.6 | 6.5 | -4.2 | -6.4 | 5.4 | 3.0%
O=C(NC1CCCc2ccccc21)c1cccc(Br)c1 (stereo not drawn) | 5.0 | 19.3 | -2.0 | -13.5 | 30.7 | 6.9%
Cc1noc(C)c1CCC(=O)NC1CCCN(Cc2ccc(CC(C)C)cc2)C1 (stereo not drawn) | 0.2 | 2.0 | 9.3 | -12.8 | 1.7 | 1.8%
Cc1ccnc(SCc2ccc(C(=O)O)cc2)n1 | 0.0 | 7.6 | -0.4 | -2.4 | 10.2 | 4.5%
COc1ccc2[nH]c(=O)c(CN(C(=O)COc3ccccc3)C(C)C)cc2c1 | 1.7 | 0.0 | -3.0 | -1.6 | -0.6 | 2.3%
Cc1ccc(C(=O)n2c(-c3ccccc3)cnc2SCC(=O)Nc2ccc(C)cc2C)cc1 | 5.9 | -11.7 | -2.5 | -3.8 | -15.4 | 5.1%
CC(Oc1ccc(Cl)cc1)C(=O)Nc1ccccc1N1CCOCC1 (stereo not drawn) | 73.8* | -1.0 | 1.1 | -0.7 | 0.9 | 3.7%
CC(Sc1ccccc1)C(=O)N/N=C/c1cccnc1 (stereo not drawn) | -0.3 | 9.4 | -2.2 | -5.6 | 2.2 | 0.8%
CC(C)C(=O)Nc1cccc(NC(=S)NC(=O)c2ccc([N+](=O)[O-])cc2)c1 | -0.9 | -6.0 | -6.8 | -19.5 | -6.8 | -12.9%[38.3 µM]
CSc1ncc(OCc2ccccc2)c(=O)[nH]1 | -1.0 | · | -3.3 | -20.7 | -3.4 | 1.6%
O=[N+]([O-])c1ccc(-c2cn3nc(-c4ccccc4)c(-c4ccccc4)nc3n2)cc1 | 1.2 | 4.6 | 0.8 | -0.4 | 0.6 | 1.7%
COc1ccc(CCNC(=O)C2CCCN(S(=O)(=O)c3cc(C)ccc3OC)C2)cc1OC (stereo not drawn) | -0.6 | · | 0.8 | -10.5 | 3.8 | 2.8%
Cc1ccc(N2C(=O)C3CCC(C)(C2=O)C3(C)C)cc1 (stereo not drawn) | -0.4 | -2.6 | -2.9 | -3.5 | 0.1 | -1.8%
CCc1ccc(NC(=O)C2CCCN(S(=O)(=O)c3ccc4c(c3)CCCN4C(C)=O)C2)cc1 (stereo not drawn) | -0.3&0.4 | -0.4 | 1.6 | 3.9 | -1.7 | -0.8%&0.4%
O=c1cc(CN2CCN(c3ccc(Cl)c(Cl)c3)CC2)c2ccccc2o1 | -0.4 | 1.9 | -1.9 | -12.5 | -3.5 | 0.4%
COc1ccccc1-c1nn2c(C3COc4ccccc4O3)nnc2s1 (stereo not drawn) | 1.9 | 6.6 | -1.4 | -3.5 | -0.9 | ·
CC(OC(=O)CN1C(=O)NC2(CCCC2)C1=O)C(=O)c1ccc(C(C)(C)C)cc1 (stereo not drawn) | 2.8 | 2.9 | -6.2 | -5.8 | 3.0 | -0.8%
COC(=O)C1CCN(C(=O)C2CCC(=O)N(CCCc3ccccc3)C2)CC1 (stereo not drawn) | -0.6 | 4.1 | 0.9 | 0.0 | 0.4 | -1.1%
Cc1cc(C)n2ncc(C(=O)NCc3ccccc3)c2n1 | 4.3 | -5.6 | 1.2 | 7.3 | -1.2 | -1.8%
CC(C)C(NS(=O)(=O)c1cccc2nsnc12)C(=O)NCCC1=CCCCC1 (stereo not drawn) | 0.0 | 3.7 | -2.5 | -7.7 | 1.6 | -0.4%
Cc1ccc(NCN2C(=O)c3ccccc3C2=O)cc1Cl | 0.2 | 3.7 | -3.8 | -4.5 | -7.8 | 0.1%
CC(=O)Nc1cccc(-c2csc(Nc3ccccn3)n2)c1 | 0.9 | 7.4 | -0.9 | 6.1 | -8.7 | ·
Cc1ccc(C)c(/C=C(\C(=O)O)c2ccc(S(=O)(=O)N3CCCCC3)s2)c1 | -0.2 | -17.3 | -1.8 | -16.7 | -9.5 | 1.8%
CCNC(=O)/C(C#N)=C/c1c(N2CCN(c3ccccc3)CC2)nc2c(C)cccn2c1=O | 1.2 | ? | -1.5 | -6.1 | -24.2 | 4.5%
C=CCn1c(=O)c(C(=O)Nc2ccccc2C(=O)OCC)c(O)c2ccccc21 | -0.6 | 1.6 | -1.2 | -5.8 | 13.5 | 12.8%
Cc1nn(C)cc1C(C(=O)NC1CCCCC1)N(Cc1ccccc1Cl)C(=O)c1cnccn1 (stereo not drawn) | 0.2 | 1.6 | -0.3 | -7.9 | 10.3 | 1.7%
O=C(c1cc(COc2ccc(F)cc2Cl)on1)N1CCN(C2CCCCC2)C(=O)C1 | 0.6 | -3.6 | 0.3 | -35.5 | -3.7 | 0.3%
CCOC(=O)c1ccc(NC(=O)COc2ccc(CNCCO)cc2OCC)cc1 | 0.0 | 14.7 | 3.5 | 0.1 | 10.2 | 0.2%
Cc1cc(Br)ccc1Nc1nc(N)nc(N)c1N=O | 3.3 | -20.9 | -1.9 | -2.2 | ? | -6.9%
O=C(N/N=C/c1ccncc1)c1cc([N+](=O)[O-])cc([N+](=O)[O-])c1O | 15.9 | -17.0 | -2.1 | -1.7 | -11.4 | 2.3%
New compounds follow:
SMILES | TRPML1 ag | CtBP-E1A inh | D2 agonist | D2 PAM | Six1-Eya2 inh | PINK1 expr mod
Cc1cc2nccc(-c3ccco3)n2n1 | 0.0 | -2.1 | -1.2 | -6.3 | 0.2 | -1.1%
Cn1c(CO)cnc1S(=O)(=O)Cc1ccc(Cl)cc1 | 0.4 | 9.7 | 4.0 | -4.1 | 5.5 | 0.3%
COc1ccc(S(=O)(=O)N2CCCOC2CNC(=O)C(=O)NCc2ccncc2)cc1 (stereo not drawn) | 1.3 | -12.7 | 1.0 | 6.5 | -0.8 | -2.3%
CCOc1ccc(S(=O)(=O)Nc2nc3ccccc3nc2-n2ccc(=NC(=O)c3cccs3)cc2)cc1 | 3.1 | · | -3.1 | -10.4 | 1.2 | -1.0%
CC1Sc2ccccc2N(Cc2ccccc2)C1=O (stereo not drawn) | -0.9 | 15.7 | -3.1 | -13.2 | 8.1 | 2.0%
CC1(C(=O)NS(=O)(=O)C2CC2)CCN(C(=O)c2ccc(F)c(Cl)c2)C1 (stereo not drawn) | -0.4 | -4.8 | -6.3 | -6.6 | 5.0 | 3.1%
Cc1cnc(C(=O)Nc2ccc(C(=O)N3CCCCC3)cc2)cn1 | 0.4 | -0.9 | -0.8 | 3.3 | 6.6 | -3.7%
COc1ccc(-c2cn3cc(Cl)ccc3n2)cc1OC | -0.3 | ? | -5.5 | -3.0 | -9.8 | 0.5%
CCCCC(C)n1[nH]c(=O)cc1N (stereo not drawn) | -0.7 | 5.7 | 0.1 | -20.5 | -5.5 | -0.4%
CC12CCC(C/C1=N/O)C2(C)C (stereo not drawn) | · | 7.7 | -7.4 | -23.6 | 6.7 | -0.5%

Only PINK1 expr mod and TRPML1 ag, for some of the entries so far:
structure	PINK1 expr mod	TRPML1 ag
CC1Sc2ccccc2N(Cc2ccccc2)C1=O (stereo not drawn)	2.0%	-0.9
Cn1c(CO)cnc1S(=O)(=O)Cc1ccc(Cl)cc1	0.3%	0.4
CCCCC(C)n1[nH]c(=O)cc1N (stereo not drawn)	-0.4%	-0.7
CCOc1ccc(S(=O)(=O)Nc2nc3ccccc3nc2-n2ccc(=NC(=O)c3cccs3)cc2)cc1	-1.0%	3.1
Cc1cc2nccc(-c3ccco3)n2n1	-1.1%	0.0

Screens (PubChem)

Random draw from the library. About 1.3% of those tested had a hit in this group.
